Source: PubChem (Broad Institute)
Tgondii IFNg: blocks Toxoplasma gondii growth in the presence of IFN-gamma; Toxoplasma gondii growth in IFN-gamma-treated host cells; hits give low values; reference of the scale not given here; activity change, negative = inhibition, %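 (about 20 µM by stock and volumes)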; 69,000 compounds, 3.8% hits;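 active means below -70%; inconclusive means fit judged invalid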;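 further: host cells are HeLa cells infected with Toxoplasma gondii; parasite growth read as luciferase light; one replicate is shown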
* marks the source's active call; other numbers are inactive results; i = inactive; ? = inconclusive.

entry | smiles | Tgondii IFNg
1 | O=C(c1ccccn1)N1CC[C@@H]2[C@@H](CO)Nc3ccc(C#Cc4cccnc4)cc3[C@@H]21 | 14.7
2 | COC(=O)c1sccc1S(=O)(=O)N1CCCC2(CC1)CN(C)C(=O)O2 (stereo unspecified) | 4.9
3 | CCC(=O)Nc1cccc(OCC(=O)N2CCOCC2CC(C)C)c1 (stereo unspecified) | 9.4
4 | O=C(C1CCN(S(=O)(=O)c2ccc3[nH]c(=O)ccc3c2)CC1)N1CCN(c2ccccc2F)CC1 | 27.2
5 | COc1ccc(CN2CC(OCc3cccnc3)CN(C(=O)c3ccc(C(C)=O)cc3)CC2=O)cc1 (stereo unspecified) | -1.6
6 | COCc1nnc(NC(=O)C2CC(=O)N(CCc3c[nH]c4ccc(Cl)cc34)C2)s1 (stereo unspecified) | 146.6
7 | Cc1cccc(C)c1NS(=O)(=O)c1ccc(NC(=O)c2ccc(Cl)c([N+](=O)[O-])c2)cc1 | -67.3
8 | N#C/C(=C/c1ccc(O)c(O)c1)C(=O)Nc1ccccc1 | 17.5
9 | Cc1nc2c(c(=O)n1C)CCN(Cc1ccc(Sc3nncn3C)o1)CC2 | 6.8
10 | CCc1ccccc1S(=O)(=O)Nc1ccc2c(c1)CCC(=O)N2CCOC | 20.3
11 | CC(C)C(=O)Nc1ccc2c(c1)C(=O)N(C)[C@@H]1CC[C@H](CC(=O)NCCc3ccccc3)O[C@@H]1CO2 | -1.2
12 | CC1CCN(S(=O)(=O)c2ccc3c(ccc(=O)n3CC(=O)NC3CCCc4ccccc43)c2)CC1 (stereo unspecified) | -31.9
13 | O=C(NC1CCC(n2cnnc2)CC1)c1ccc2cccnc2n1 (stereo unspecified) | 1.4
14 | COCCN1C(=O)CCC12CCC(NC(=O)c1ccncc1F)CC2 (stereo unspecified) | -3.4
15 | Cc1onc(-c2ccccc2)c1C(O)c1ccc(F)cc1 (stereo unspecified) | -28.9
16 | CC(C)n1cnc(-c2cc(C(=O)Cc3cccnc3)c3ccccn23)c1 | -57.3
17 | COC(=O)c1c(NCCN2CCC(C)CC2)c2cccc(Cl)c2[nH]c1=O | 19.1
18 | CC(C)OC(=O)C1C(=O)CC(C)(O)C(C(=O)OC(C)C)C1c1cccc(O)c1 (stereo unspecified) | -17.3
19 | Cc1ccsc1CN(C)C(=O)c1ccc(OCC(N)=O)cc1 | 6.4
20 | Cn1ccnc1CN1CCCC2(COCCN(c3cccc(C#N)n3)C2)C1 (stereo unspecified) | -13.5
21 | CCCNC(=O)C[C@@H]1CC[C@H]2[C@@H](COC[C@H](O)CN2C(=O)Nc2ccc(Cl)c(Cl)c2)O1 | -22.0
22 | O=C(C[C@@H]1CC[C@@H]2NC[C@H](O)COC[C@H]2O1)NCCN1CCCCC1 | 7.1
23 | COc1ccccc1NC(=O)N[C@@H]1CC[C@H](CCNS(=O)(=O)c2ccc(Cl)cc2)O[C@H]1CO | -34.5
24 | O=C(Nc1cnn(-c2ncncc2N2CCCCC2)c1)C1CCCC1 | -33.3
25 | NC(=O)CSc1nc(-c2ccc(Cl)cc2)cs1 | 108.9
26 | O=S(=O)(c1ccccc1)N1CCCCN2[C@@H](CO)[C@@H](c3ccc(C#CC4CCCC4)cc3)[C@@H]2C1 | -46.6
27 | C[C@@H]1CN([C@H](C)CO)C(=O)c2ccccc2-c2ccccc2CO[C@H]1CN(C)C(=O)Nc1ccnc(N2CCOCC2)c1 | -21.5
28 | COc1cccc(CC(=O)N2CCN(S(=O)(=O)c3cnoc3-c3ccncc3)CC2)c1 | 109.6
29 | C[C@H]1CC=CC[C@@H](c2ccc3c(c2)OCO3)NC(=O)[C@H](C)N(C)C(=O)c2ccccc2O1 (mixture of isomers) | 2.7
30 | COc1cccc(NC(=O)C(=O)NCCc2sc(-c3ccc(Cl)cc3)nc2C)c1 | -6.9
31 | CN1CCc2c(CNc3ncccn3)n[nH]c2C1 | -25.5
32 | N#C[C@@H]1[C@H](c2ccc(C3=CCCC3)cc2)[C@H](CO)N1C(=O)c1ccccn1 | 3.3
33 | CCOc1ccc(-c2cnc[nH]2)cc1OCC | -47.2
34 | NC(=O)c1c(N)nnn1Cc1ccc(F)cc1 | -49.2
35 | COCC(=O)N1CC2(CN(Cc3ccc(Cl)cc3)C2)c2c([nH]c3cc(OC)ccc23)[C@@H]1CO | -33.8
36 | O=C(C[C@@H]1CC[C@H]2[C@@H](COC[C@H](O)CN2C(=O)c2ccccc2F)O1)NCc1ccc(Cl)c(Cl)c1 | -41.5
37 | C=CCOC1C2CCC1N(C(=O)c1nn(C)c3ccccc13)CCO2 (stereo unspecified) | 98.4
38 | CC[N+]1(C)CC2CCC(C)(C1)C2(C)C (stereo unspecified) | 16.3
39 | O=C(CSc1nc2ccccc2o1)N1CCCc2ccccc21 | 93.3
40 | CC(=O)Nc1ccc(-c2ccccc2CO)c2cccnc12 | 1.0
41 | CCSC1=NCN(CCCC(=O)O)CN1 | 10.5
42 | NS(=O)(=O)OC[C@@H]1C[C@@H](n2ccc3c(N[C@H]4CCc5ccccc54)ncnc32)C[C@@H]1O | -49.1
43 | CCC(=O)N1CCc2c(c(COc3cccnc3)nn2CC2CC2)C1 | -3.8
44 | CCCC(CCC)C(=O)Nc1ccn([C@@H]2O[C@H](CO)[C@@H](O)C2(F)F)c(=O)n1 | 11.1
45 | COc1ccc2c(c1)C=C(CN(CCN(C)C)Cc1cccnc1)CO2 | 44.8
46 | COc1ccc(S(=O)(=O)Nc2ccc3c(c2)CC(=O)N([C@H](C)CO)C[C@H](C)[C@@H](CN(C)C(=O)Nc2c(C)noc2C)O3)cc1 | -7.9
47 | Cc1oc(-c2ccc(C(=O)NCCN(C)C)cc2)nc1CN1CCc2ccccc21 | -111.8*
48 | Nc1ccc(N2CCCC2)c(C(=O)N2CCCC2)c1 | 169.1
49 | CCn1c(=O)c(-c2nc(-c3cccc(F)c3)no2)c(O)c2ccccc21 | 44.5
50 | Cc1noc(C)c1S(=O)(=O)N(C)C[C@H]1OCc2cnnn2CCCC(=O)N([C@H](C)CO)C[C@H]1C | 238.4
51 | CCC(=O)N1[C@@H](CO)[C@@H](c2ccccc2)C12CN(C(=O)CN1CCOCC1)C2 | -27.9
52 | Cc1ccc(NC(=O)N2CCC3(CC2)Nc2ccccc2-n2cccc23)cc1F | 368.6
53 | Cc1ccsc1S(=O)(=O)N1CC[C@@](C)(O)[C@@H](CC(C)C)C1 | -12.9
54 | CCC(C(=O)NCCN1CCCC1)n1c2ccccc2c2cnn(C)c(=O)c21 (stereo unspecified) | 63.3
55 | CO[C@H](CN(C)S(=O)(=O)c1cccc(Cl)c1)[C@@H](C)CN(C(=O)Nc1ccccc1F)[C@@H](C)CO | 71.1
56 | CCCc1nc(C(=O)N2CCOC(c3ccc(Cl)cc3)C2)cs1 (stereo unspecified) | -5.6
57 | CCC(c1ccc(OC)cc1)N(CC)C(=O)c1cccn1C (stereo unspecified) | -50.0
58 | CC(=O)N1CC2(C1)[C@@H](c1ccccc1)[C@H](CO)N2C(=O)Cc1ccccc1 | 4.8
59 | Cc1nccn1CC1(O)CCN(C(=O)CN(C2CCCCC2)S(C)(=O)=O)CC1 | 1.5
60 | CCCCc1nc(Cl)c(CN2CCn3cncc3C2)[nH]1 | 81.0

Next section
entry | smiles | Tgondii IFNg
61 | O=C(C1CC1)N1CCc2c([nH]c3ccccc23)C1c1ccc(F)cc1 (stereo unspecified) | 492.4
62 | CC(C)N(C)[C@@H]1CCN(C(=O)c2cnccn2)[C@H]1Cc1ccccc1 | 0.2
63 | c1ccc(-c2ncn(Cc3ccccn3)c2-c2cccn2-c2ccccn2)cc1 | 9.8
64 | CNC(=O)[C@@H]1C[C@H](N)CN1C(=O)c1cc2ccccc2cn1 | 9.3
65 | CCOc1ccc(C(=O)N2CCC3(CC2)NC(=O)c2cc(F)ccc2N3C)cc1 | 20.3
66 | O=C1CCCCCN1CC(=O)N1CCc2onc(-c3ccccc3)c2C1 | -4.8
67 | CC(C)c1nccn1C(C)C(=O)NCc1cc2ccc(F)cc2[nH]c1=O (stereo unspecified) | 8.4
68 | O=C(c1ccc(F)cc1)N1CCCC2(COCCN(CC3CC3)C2)C1 (stereo unspecified) | 1.4
69 | COCc1cn(C2CCN(C(=O)C3CCCCCC3)CC2)nn1 | -13.1
70 | CCc1ccc(NC(=O)N2CCn3cnc(COCC4CC4)c3C2)cc1 | 7.5
71 | CN(C)Cc1cc(C2CCCCN2C(=O)c2ccc3c(c2)OCCO3)nn1C (stereo unspecified) | -1.4
72 | CCCNC(=O)N1CCC2(CC1)CN(C(=O)CC1CC1)[C@@H](CO)c1c2c2ccc(OC)cc2n1C | 2.5
73 | CCn1c(CC2CCN(S(=O)(=O)c3cccc(C)c3)CC2)nn(C)c1=O | 3.3
74 | COc1ccc(NC(=O)c2nc(Nc3ccc(Cl)cc3)c3ccccc3n2)cc1Cl | 56.5
75 | Cc1cncc(C2CCCN(S(=O)(=O)c3cccs3)C2)n1 (stereo unspecified) | -8.0
76 | CC(=O)N1CC2(CCN(CC(=O)O)CC2)c2cc(C)ccc21 | i
77 | C#C[C@]1(O)CCC2C3CCC4=CC(=O)CCC4C3C(=C)CC21CC (stereo partly specified) | -0.1
78 | C=CCN(Cc1ccccc1Cl)C(=O)c1cc(C2CC2)[nH]n1 | -9.0
79 | O=C(C[C@H]1CC[C@H]2[C@@H](COC[C@@H](O)CN2Cc2ccc3c(c2)OCO3)O1)N1CCCCC1 | -22.0
80 | Cc1ccc(S(=O)(=O)N2CCC3(CC2)NCCN=C3NCc2ccccc2C)c(C)c1 | 0.8
81 | Cc1oc(-c2ccc(C(=O)NCCc3cccs3)cc2)nc1CN1CCc2ccccc21 | -88.6*
82 | CN(C)C(=O)[C@H]1CC[C@H]2[C@@H](CCN2C(=O)N2CCCC2)O1 | -18.6
83 | Cc1nc(-c2ccc(Cl)cc2)sc1CCNC(=O)CN1C(=O)c2ccccc2C1=O | -12.0
84 | Cc1ccc(-c2nc(C)c(CCNC(=O)C(=O)Nc3cc(C)cc(C)c3)s2)cc1 | -47.0
85 | Cc1ccc(-c2nc(Cn3nnc(-c4nc(-c5ccc(C)c(C)c5)no4)c3C)c(C)o2)cc1 | 13.0
86 | COCCN1CCN(C(=O)Cc2ccsc2)Cc2cccnc21 | -5.4
87 | Cc1cnc(-c2ccc(S(C)(=O)=O)cc2)c(Cl)c1 | 5.4
88 | COc1ccccc1CC(=O)NCCn1cc(-c2ccncc2)c(-c2ccccc2F)n1 | -49.4
89 | NC(=O)C1CCN(C(=O)c2cc(-c3ccnn3C3CCCC3)n3ccccc23)CC1 | 13.5
90 | COCc1ncc(CN2CCC(Cc3cccc(C(=O)O)c3)C2)cn1 (stereo unspecified) | 3.4

Among those listed so far, these have a cyano group.
entry | smiles | Tgondii IFNg
8 | N#C/C(=C/c1ccc(O)c(O)c1)C(=O)Nc1ccccc1 | 17.5
20 | Cn1ccnc1CN1CCCC2(COCCN(c3cccc(C#N)n3)C2)C1 (stereo unspecified) | -13.5
32 | N#C[C@@H]1[C@H](c2ccc(C3=CCCC3)cc2)[C@H](CO)N1C(=O)c1ccccn1 | 3.3

(further entries)
entry | smiles | Tgondii IFNg
91 | O=C(CCn1cnc2ccccc2c1=O)NCc1cnn2ccccc12 | 4.9
92 | CNS(=O)(=O)c1ccc(CN2CC3(CCNCC3)CC2C(=O)O)cc1 (stereo unspecified) | -0.4
93 | Cc1cc(-c2onc(C)c2-c2nc(-c3cccc(C(F)(F)F)c3)no2)no1 | -54.6
94 | CCS(=O)(=O)NC[C@@]12COC[C@H]1CN(c1cc(OC)ncn1)C2 | -2.0
95 | COc1cccc(-c2nccn2-c2cccc(-c3nnc(C)s3)c2)c1OC | 11.1
96 | Cc1ncsc1CN1C[C@H]2CCCO[C@H]2[C@@H](N(C)C)C1 | -53.3
97 | COCC#Cc1ccc([C@@H]2[C@H](CO)N3C(=O)CN(C(=O)c4ccncc4)C[C@@H]23)cc1 | -3.9
98 | CC(NCC(=O)Nc1cnccn1)c1ccccc1-n1cccn1 (stereo unspecified) | -4.8
99 | Cc1cc(=O)n(CC(=O)Nc2cccc(-c3nnco3)c2)c2ccccc12 | -47.6
100 | C=CC(=O)Nc1cccc(Nc2nc(Nc3ccc(Oc4ccnc(C(=O)NC)c4)cc3)ncc2F)c1 | -77.9*
101 | c1ccc2c(c1)OCC(c1csc3ncnc(N4CCCCC4)c13)O2 (stereo unspecified) | -89.8*
102 | CCc1ccc(CN2CCN(c3cc(C(N)=O)ccn3)CC2)nc1 | -0.2
103 | CCCCc1nc(Cl)c(CN2CCN(C)C(C(=O)O)C2)[nH]1 (stereo unspecified) | -48.7
104 | CN1CCC(N2CCN(C(=O)Cn3c(=O)n(-c4ccccc4)c4ncccc43)CC2)CC1 | -12.1
105 | Cc1cccn2c(CC(=O)N(C)C(C)c3nccs3)cnc12 (stereo unspecified) | -0.3
106 | CC(C)CCN1C[C@@H]2CCN(C(=O)c3ccnnc3)CC[C@H]2S1(=O)=O | -51.5
107 | CC(C)CN1C(=O)CCc2cc(NC(=O)c3c(F)cccc3F)ccc21 | -16.2
108 | CCNC(=O)[C@@H]1[C@@H](CO)[C@@H]2Cn3c(ccc(-c4cccc(F)c4)c3=O)[C@@H]2N1C(=O)Cc1cccnc1 | 17.2
109 | C[C@@H]1CN([C@H](C)CO)C(=O)c2cc(NC(=O)Nc3ccc4c(c3)OCO4)ccc2O[C@@H](C)CCCCO[C@@H]1CN(C)S(=O)(=O)c1ccccc1 | i
110 | Cn1cc(CN2CCC3(CC2)CNC(=O)CO3)cn1 | -44.9
111 | COc1ccc(C)cc1NC(=O)N1CCc2nc(-c3ccc(C)cc3)sc2C1 | -13.0
112 | CCS(=O)(=O)N1CC2(CN(Cc3ccc4c(c3)OCO4)[C@@H](CO)c3c2c2ccc(OC)cc2n3C)C1 | ?
113 | COc1ccc(-c2cnccc2C)c(OC)c1 | -51.4
114 | COC(=O)CN1C(=S)N(c2ccc(F)cc2)C(=O)C1CC(=O)Nc1ccccc1 (stereo unspecified) | 0.3
115 | COc1ccc(OC)c(C2CC(=O)Nc3sc4c(C)c(C#N)c(N)nc4c32)c1 (stereo unspecified) | -43.8
116 | Cc1nnn2c1COC(CNC(=O)c1cccn1C)C2 (stereo unspecified) | 31.0

Quoted at random: two compounds from above, in no set order.
entry | smiles | Tgondii IFNg
115 | COc1ccc(OC)c(C2CC(=O)Nc3sc4c(C)c(C#N)c(N)nc4c32)c1 (stereo unspecified) | -43.8
113 | COc1ccc(-c2cnccc2C)c(OC)c1 | -51.4

Some of the compounds tested; count on the stated rates, not on these rows.
